NPYLR7 ag – agonists of mosquito NPYLR7 receptor, primary screen, cell-based, Aedes aegypti, calcium fluorescence, mosquito biting behavior; HEK293T NPYLR7/Galpha15, GCaMP6s calcium fluorescence; activation, % at 10 µM; Aedes aegypti neuropeptide Y-like receptor 7 (NPYLR7); 270,000 compounds, 0.15% hits; in the data active means activation above about 40%;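 further: 0% = vehicle and 100% = reference agonist at the receptor; some compounds past the cut are filed as inactive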
NPYLR7 ag max-min – recorded beside NPYLR7 ag, whose call it bears; activation, %; measured here: Max-Min RFU normalised activation; some inactives read as strong as hits;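 span of the calcium signal over five minutes; 0% = vehicle and 100% = native peptide agonist; compound fluorescence can raise it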
Starred values were filed as active, the others as inactive; & = joins results of further samples. These rows are one share of the data; the hit share may differ from the screen's.

SMILES | NPYLR7 ag | NPYLR7 ag max-min
O=C(C(c1ccccc1)c1ccccc1)N1CCc2nc(-c3ccccc3)nc(N3CCCCC3)c2C1 | -8.9 | 1.4
Cc1cc(C)n(-c2ccc(Cl)c(C(=O)OCC(=O)NC(C)C34CC5CC(CC(C5)C3)C4)n2)n1 (stereo unspecified) | 5.8 | 12.7
Fc1ccc(CSc2nccn3nc(-c4ccccc4)cc23)cc1 | 3.4 | 5.4
CCCCCCNc1nc2c(c(=O)[nH]c(=O)n2C)n1CCCCC | 11.4 | 4.9
FC(F)C(F)(F)Oc1cccc(Nc2nccn3c(-c4cccc(Br)c4)cnc23)c1 | -5.1 | -10.2
Cc1cc(C(F)(F)F)nc(CCNC2CCC(=O)N(CC3CC3)CC2)n1 (stereo unspecified) | -3.1 | 6.1
O=C(O)c1nn(-c2cc(Cl)c(Cl)cc2Cl)cc1O | -2.5 | -7.0
COc1ccc(-n2nnnc2CNS(=O)(=O)c2ccc(OC)c(C)c2)cc1 | 0.0 | -2.5
Fc1ccc(-c2cc3ncnc(NCC4COc5ccccc5O4)c3s2)cc1 (stereo unspecified) | 10.1 | 10.1
Cc1ccccc1CSc1nnc(NC(=O)c2ccc(C(C)(C)C)cc2)s1 | 25.5 | 28.7
Cc1ccc(F)cc1CC(=O)N(C)Cc1snnc1C | 2.4 | 3.7
COc1cn2c(cc1=O)C(=O)N(CCNC(=O)C(C)C)CC2 | 6.4 | 7.0
CCn1cc(CN2CCC(CO)(CCCc3ccccc3)CC2)cn1 | 7.7 | 13.0
COc1ccccc1C(=O)C1CCCN(C(=O)c2ccc(F)c(F)c2)C1 (stereo unspecified) | 3.1 | 0.4
CCOc1ccc(CCC2CCN(C(=O)c3ccc(=O)[nH]c3)CC2)cc1 | 3.8 | 3.5
Cc1cc(CNC(=O)CC2C(=O)NCCN2Cc2cccc(Oc3ccccc3)c2)nn1C (stereo unspecified) | 0.8 | -0.8
Cc1ccc(-c2ncc(C(=O)NC(C)C)s2)c(C)c1 | 1.8 | 0.6
CC(CC(=O)N1CCC(c2nc(-c3ccccc3Cl)no2)CC1)CC(C)(C)C (stereo unspecified) | 28.9 | 14.5
O=C(NC1COc2ccccc2C1)C1CCN(S(=O)(=O)c2cccc(C(F)(F)F)c2)CC1 (stereo unspecified) | 5.8 | 3.0
CC(C)n1c(C(F)(F)F)nc2cc(C(=O)O)ccc21 | 20.4 | 10.1

By substructure, the entries above containing an aryl thioether with sulfur outside any ring
SMILES | NPYLR7 ag | NPYLR7 ag max-min
Fc1ccc(CSc2nccn3nc(-c4ccccc4)cc23)cc1 | 3.4 | 5.4
Cc1ccccc1CSc1nnc(NC(=O)c2ccc(C(C)(C)C)cc2)s1 | 25.5 | 28.7

Next compounds
SMILES | NPYLR7 ag | NPYLR7 ag max-min
O=C(Nc1nc(-c2ccccc2)cs1)C12CC3CC(CC(C3)C1)C2 | -1.9 | -3.0
COc1ccccc1C(=O)Nc1ccc2oc(-c3c(C)cc(C)cc3C)nc2c1 | 17.5 | 15.5
COc1ccc2oc(-c3ccc(NC(=O)c4cccc(C)c4)cc3)nc2c1 | 1.4 | -1.1
C=CCn1c(SCC(=O)NCCCOCc2ccccc2)nc2sc3c(c2c1=O)CCC3 | 5.5 | 0.0
COc1cc(C)sc1C(=O)NCCc1nc(N)no1 | 5.6 | 4.5
O=C1CN(CC(=O)N2CCN(CC(=O)Nc3ccccc3C(F)(F)F)CC2)CCN1 | 3.6 | 2.2
N#Cc1cccc(C=C2N=C(c3ccc(N4CCCC4=O)cc3)OC2=O)c1 | 7.3 | 11.1
CCOC(=O)c1cnc(C2CC2)nc1NCCc1cccc(OC)c1 | -2.4 | 5.9
CCn1c(C)nc2cc(S(N)(=O)=O)ccc21 | 2.2 | 0.5
Cn1c(-c2ccccc2)nn(CCNC(=O)c2cccs2)c1=O | 2.2 | 1.7
COc1ccc(CCOC(=O)C2CCCCN2C(=O)C[C@H]2C[C@@H](C(C)=O)C2(C)C)cc1OC (stereo partly specified) | -13.8 | -25.2
Cc1ccc(Nc2nc(NCCN3CCOCC3)nc3nccnc23)cc1 | 6.1 | 6.3
CCNC(=O)N1[C@@H](c2ccccc2)[C@@H](C(=O)O)C[C@]12CCCCN(CCOC)C2=O | 6.8 | 14.3
COc1ccc(CCCc2n[nH]c(=S)o2)cc1 | 6.1 | 9.5
CCn1nccc1NC(=O)c1cccc(CN2CCC(N(C)C(C)=O)C2)c1 (stereo unspecified) | 14.9 | -2.6
Cc1cccnc1C(NC(=O)C1CCN(Cc2cccc(C(F)(F)F)c2)CC1)c1ccccc1 (stereo unspecified) | 9.3 | 0.3
COc1ccc(CN2CCN(Cc3ccc(-n4cccn4)cc3C)CC2CCO)cc1C (stereo unspecified) | 8.6 | -1.8
Cn1c(=O)[nH]c(=O)c2c1nc(N1CCCCC1)n2CCCSc1nc2ccccc2s1 | 0.2 | 15.0
Cc1cc(C)c2c(N)c(C(=O)NN=C3C4CC5CC(C4)CC3C5)sc2n1 | -1.1 | -1.4
COCCCNC(=O)C(NC(=O)c1ccccc1C)C1CCN(C(=O)CCc2ccccc2)CC1 (stereo unspecified) | 1.2 | 13.0

The closing five entries of the section before open the next one:
SMILES | NPYLR7 ag | NPYLR7 ag max-min
Cc1cccnc1C(NC(=O)C1CCN(Cc2cccc(C(F)(F)F)c2)CC1)c1ccccc1 (stereo unspecified) | 9.3 | 0.3
COc1ccc(CN2CCN(Cc3ccc(-n4cccn4)cc3C)CC2CCO)cc1C (stereo unspecified) | 8.6 | -1.8
Cn1c(=O)[nH]c(=O)c2c1nc(N1CCCCC1)n2CCCSc1nc2ccccc2s1 | 0.2 | 15.0
Cc1cc(C)c2c(N)c(C(=O)NN=C3C4CC5CC(C4)CC3C5)sc2n1 | -1.1 | -1.4
COCCCNC(=O)C(NC(=O)c1ccccc1C)C1CCN(C(=O)CCc2ccccc2)CC1 (stereo unspecified) | 1.2 | 13.0
CCN(CC)C(=O)CN(C)C(=O)c1ccc2c(c1O)OC(C)(C)C2 | 2.4 | 1.2
O=C(O)c1cc(-c2ccc(F)cc2)nn1-c1cccc([N+](=O)[O-])c1 | -11.1 | -0.9
Cc1ccc(CN(CCN(C)C)Cc2cccc3nonc23)s1 | 12.1 | 3.4
Cc1nn(C)c(Cl)c1CN(C)CCN1CCCCC1C (stereo unspecified) | 2.1 | -2.8
COc1ccc(OC)c(C(O)c2ncc(-c3cccc4ccccc34)[nH]2)c1 (stereo unspecified) | 1.2 | -0.3
O=C(Nc1ccccc1F)c1cc2cc(Cl)ccc2oc1=O | 1.8 | 4.4
CCCc1ccc(C#N)c(SCC(=O)O)n1 | -5.9 | -13.3
CC(=O)c1ccc(N2CCN(Cc3cc(-c4ccccc4)no3)CC2)cc1 | 0.6 | 3.9
Nc1ncnc2ncc3c4ccccc4[nH]c3c12 | 8.0 | 2.7
Cc1ccccc1CC1(C(=O)O)CCCN(c2cc(C3CC3)ncn2)C1 (stereo unspecified) | 6.1 | 4.7
CCNC(=O)O[C@H]1C(=O)N(C)C2(CCN(C(=O)c3ccc(C)cc3)CC2)[C@@H]1C(=O)OCC | 9.3 | 13.0
COc1ccc(N2C(=O)NC3CC2(C)Oc2c(OC)cc(Br)cc23)cc1OC (stereo unspecified) | -11.0 | -16.0
CC(CNC(=O)Nc1cccc(-c2noc(=O)[nH]2)c1)c1ccccc1 (stereo unspecified) | -1.3 | -3.0
CNc1snc(C)c1C(=O)N1CCN(c2ccccc2OC)CC1 | 0.9 | -0.8
CCOC(=O)CC1(S(=O)(=O)c2ccc(F)cc2)CCN(Cc2ccc(C)o2)CC1 | -2.8 | -7.0
Cn1c(=O)c2ccc(C(=O)Nc3ccc(F)cc3)nc2n(C)c1=O | 8.7 | 2.5
N#Cc1cc(N2CCC(CS(N)(=O)=O)CC2)c2ccccc2n1 | 8.9 | 3.7
CN1C[C@@H](NC(=O)C2CCCC2)C[C@H]1C(=O)NCCc1nc2ccccc2[nH]1 | -1.4 | 0.7
CCc1cn[nH]c1C1CCN(C(=O)c2ccc(C(=O)c3cc(OC)ccc3OC)cc2)CC1 | 22.2 | 6.9
CC(C)C(=O)N1CCN(C(=O)C=Cc2cn(-c3ccccc3)nc2-c2cccs2)CC1 | -7.6 | -11.0
Cc1ccc(CN(CCc2c[nH]c3ccccc23)C(=O)CN(C(=O)C(C)(C)CCl)C2CC2)cc1 | 22.5 | 29.8
O=C(CC12CC3CC(CC(C3)C1)C2)NCC(=O)N1CCC(c2nc3ccccc3o2)CC1 | 2.0 | -4.5
CNC(=O)CC1C(=O)NCCN1CCn1c(=O)oc2ccccc21 (stereo unspecified) | 23.5 | 10.2
Cc1cccc(C(=O)Nc2sc3c(c2C(=O)N2CCN(Cc4ccccc4)CC2)CCCC3)c1 | -3.4 | -3.3
CCN(CC1CCCO1)C(=O)c1cc(C)nc2c(C)cccc12 (stereo unspecified) | -0.5 | -7.2
CCOC(=O)c1c(NC(=O)CCCC(=O)OC)c(-c2ccc(OC)cc2)cn1Cc1ccccc1 | 10.4 | 14.1
Cc1cc(C(C)NCc2cccc(F)c2)c(C)s1 (stereo unspecified) | 0.6 | -1.3
O=[N+]([O-])c1ccc(C=NNc2ccc3ccccc3n2)o1 | 3.3 | 2.0
COc1ccc(-c2cc(C(=O)NCc3ccccc3)c(C)n2-c2ccc(C)cc2)cc1 | 19.0 | 17.2
Cn1cccc1C(=O)N1CCn2c(nnc2C(N)=O)C1 | 9.3 | 4.5
Cc1cc(Cl)ccc1NC(=O)C(C)NC(=O)Nc1ccccc1 (stereo unspecified) | 0.6 | -0.9
O=C(NCc1ccc2c(c1)OCO2)C1COC2(CCN(C(=O)c3cccc(F)c3)CC2)N1C(=O)c1ccccc1 (stereo unspecified) | -5.4 | -7.8
O=C(Nc1nnc(Cc2ccc(F)cc2)s1)c1ccco1 | -10.2 | -13.5
CC1=NS(=O)(=O)c2cc(Cl)ccc2N1 | -1.9&-10.2&-10.1&-4.7&-8.8 | -1.9&-15.9&-22.5&-6.8&1.1
COc1cc(S(=O)(=O)Nc2ccccc2Cl)c(OC)cc1Cl | 2.3 | 5.3
Cc1cc(NC(=O)CSc2nnc(N3CCC(C)CC3)n2C2CC2)no1 | 8.2 | 0.5
C#CCN(C)C(=O)[C@@H](C)C1CC[C@@]2(C)Cc3sc(NS(=O)(=O)c4ccc(Cl)cc4)nc3[C@@H](C)[C@@H]2[C@H]1O (stereo partly specified) | -4.3 | -10.6
O=S(=O)(CCn1cnc(-c2ccccc2)c1-c1cnc[nH]1)N1CCCC1 | 1.2 | -2.1
CCOc1ccc(-c2cc(-c3nc(-c4ccc(OC)cc4)no3)[nH]n2)cc1 | 3.4 | -3.5
CC(=O)Nc1ccc(-c2ccnc3c2CC(C)(C(=O)NCCC(F)(F)F)O3)cc1 (stereo unspecified) | 8.8 | 16.8

Reformatted with two lines to a compound: 2 of the compounds above
Values in the order – NPYLR7 ag | NPYLR7 ag max-min
- O=S(=O)(CCn1cnc(-c2ccccc2)c1-c1cnc[nH]1)N1CCCC1
  1.2 | -2.1
- CCOc1ccc(-c2cc(-c3nc(-c4ccc(OC)cc4)no3)[nH]n2)cc1
  3.4 | -3.5

Later entries:
SMILES | NPYLR7 ag | NPYLR7 ag max-min
O=C(Nc1ccc(Cl)cn1)C1CC2C=CC1C2 (stereo unspecified) | 1.5 | 2.8
CC12CN3CC(C)(CN(C1)C(=O)c1ccccc1C3=O)C2=O | 11.3 | 8.7
NC(=S)NNc1csc(=O)[nH]1 | -1.3 | -1.4
O=C(O)CCn1c(CCC(F)(F)F)n[nH]c1=O | 5.0 | 0.1
O=c1[nH]cc(S(=O)(=O)Nc2ccc3c(c2)OCCO3)c(=O)[nH]1 | 7.0 | 3.9
CCCc1nnc2c(C(=O)NCCc3cccc(F)c3)cccn12 | -6.1 | -11.7
COc1ccc(N(C(F)F)S(=O)(=O)c2ccc(Cl)cc2)cc1Cl | 5.8 | 3.8
CCc1cc(CN(C)C(=O)Cn2cc(C(F)(F)F)ccc2=O)on1 | 0.4 | 1.2
CCOC(=O)C1=C(C)N=c2s/c(=C\c3ccc(Br)cc3)c(=O)n2C1c1ccc(OC)c(OC)c1 (stereo unspecified) | 10.9 | 13.7
CSc1ccc(NC(=O)N2CCN(c3nc(C)nc(C)c3Cc3cccc(C(F)(F)F)c3)CC2)cc1 | -4.1 | 0.4

Profiles from above:
Profile of `O=C1CN(CC(=O)N2CCN(CC(=O)Nc3ccccc3C(F)(F)F)CC2)CCN1` : NPYLR7 ag: 3.6; NPYLR7 ag max-min: 2.2
Profile of `NC(=S)NNc1csc(=O)[nH]1` : NPYLR7 ag: -1.3; NPYLR7 ag max-min: -1.4

(further entries)
SMILES | NPYLR7 ag | NPYLR7 ag max-min
CC(C)Cc1noc(CN(C)c2nc(CCN)nc3ccccc23)n1 | -4.1 | -6.8
O=S(=O)(Nc1nc2ccccc2nc1Nc1ccc2nsnc2c1)c1ccccc1 | 4.0 | 9.8
COc1ccc(CNC(=O)c2ccc(-c3cc(-c4ccc(N5CCCCC5)cc4)n[nH]3)cc2)cc1 | 4.0 | -2.5
CC(NC(=O)c1cc2n(n1)CCN(Cc1ccc(C(F)(F)F)cc1)C2=O)c1ccccc1 (stereo unspecified) | 0.4 | 10.1
NC1CCCc2[nH]c(=O)ccc21 (stereo unspecified) | 7.7 | 6.2
Cc1cc(C(=O)N(Cc2ccccn2)c2nc3cc(C)c(C)cc3s2)on1 | 7.8 | 7.1
CSCC(=O)N1CCC(Oc2cccc(C(=O)NCc3ccccn3)c2)CC1 | -6.2 | -7.5
CC(C)c1ccc(C(=O)NCC(C)(C)N2CCOCC2)cc1 | -0.8 | 2.3
NC(=O)c1cc(C2=NNC(=Nc3cccc(Cl)c3)SC2)ccc1O | 8.6 | 2.6
COc1cc(-c2cc(C(F)(F)F)n3ncc(C(=O)NCC(C)C)c3n2)cc(OC)c1OC | -6.6 | -3.8
O=C(NC1CCN(c2ccccc2C(=O)NCc2cccnc2)CC1)c1cccs1 | 0.2 | 11.9
COC(=O)c1ccc(NC(=O)C2Cc3ccccc3C(=O)O2)cc1 (stereo unspecified) | 2.5 | -1.4
CN1Cc2ccccc2CC1Cn1ccnc1-c1ccccc1OCCO (stereo unspecified) | 4.0 | -0.1
